Tg IFNy HTS: inhibitors of Toxoplasma gondii growth with IFN-gamma. AID 1259416. 69,000 tested, 3.8% active. Toxoplasma gondii growth in IFN-gamma-treated host cells; stronger effect = lower value; reference of the scale not given here. activity change, negative = inhibition, %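 (about 20 µM by stock and volumes)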;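 active = below -70%; inconclusive = fit judged invalid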;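 also: host cells are HeLa cells infected with Toxoplasma gondii; parasite growth read as luciferase light; one replicate is shown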
* marks the source's active call; other numbers are inactive results; ? = inconclusive; & = joins results of further samples.

SMILES | Tg IFNy HTS
Cc1cc(C)n(Cc2ccc(C(=O)NC(C)c3nncn3C(C)C)cc2)n1 (stereo unspecified) | -2
Cc1ccccc1-c1noc(-c2cccc(NC(=O)CCN3CCCO3)c2)n1 | 167
O=S(=O)(c1ccccc1F)N1CC[C@@H]2[C@H](CO)Nc3ccc(C4=CCCCC4)cc3[C@@H]21 | -66
COC1CCC2(CCN(Cc3cnn(C)c3)CC2)c2ccccc21 (stereo unspecified) | 22
CO[C@H](CN(C)C(=O)c1cc(Cl)cc(Cl)c1)[C@H](C)CN(C(=O)Nc1ccc(F)cc1)[C@@H](C)CO | 57
COc1ccc2[nH]cc(CCNC(=O)C3CCCNC3=O)c2c1 (stereo unspecified) | -22
O=C(NCC(c1cccnc1)c1c[nH]c2ccccc12)Nc1ccc(Br)cc1 (stereo unspecified) | -23
Cn1cnc2c(-c3ccccc3)nc(C3CCN(S(=O)(=O)C4CC4)CC3)cc21 | -6
CCc1ccc(CN2CCC(c3ccnc(-c4ccncc4)c3)C2)nc1 (stereo unspecified) | -1
Cc1noc(C)c1NC(=O)N1C[C@H](O)COC[C@H]2O[C@@H](CC(=O)NCC3CC3)CC[C@@H]21 | 7
COc1cccc(C(=O)Nc2ccc3c(c2)C(=O)N(C)[C@H]2CC[C@@H](CC(=O)NCc4ccc(F)cc4)O[C@H]2CO3)c1 | -35
Cc1cccc(CNC2=NCCNC23CCN(S(=O)(=O)c2ccc(C)c(C)c2)CC3)c1 | 13
Cc1ccc(S(=O)(=O)Nc2ccc3c(c2)CC(=O)N([C@@H](C)CO)C[C@H](C)[C@H](CN(C)S(=O)(=O)c2ccccc2)O3)cc1 | -33
CCCCN(CCCC)CCNC(=O)C1=C(C)C(=O)OC12CCN(C(=O)OCC)CC2 | 108
CC(C)CN(Cc1cccc(Cl)c1)C(=O)[C@@H]1C[C@@H](O)CN1 | -6
CC(=O)N1C[C@@H]2C3(CCN(C(=O)NC(C)C)CC3)CC[C@]2(C(=O)N2CCCC2)C1 | -4
COc1ccccc1N1CCN(C(=O)CC2Nc3c4ccccc4nc(=S)n3C2=O)CC1 (stereo unspecified) | 0
CCOC(=O)c1nc(NCC2CCN(Cc3ccccc3Cl)CC2)c2ccccc2n1 | -12
COc1ccc(C2(CNC(=O)C3CCN3C3CCCCC3)CCOCC2)cc1 (stereo unspecified) | 9
Cc1cc(C)n(Cc2nc(-c3ccc(NC(=O)c4ccccc4)cc3)oc2C)n1 | 1
Cc1ccc(C)c(-c2coc(-c3ccc(NC(=O)CC(C)C)cc3)n2)c1 | -63
Cc1ccc(CNC(=O)Cn2c(=O)cc(-c3nc(C)no3)c3ccccc32)cc1 | -28
Cc1ccc(C)c(Cn2c(CNC(=O)c3cccs3)nc3ccccc32)c1 | -13
Cn1cc(N)cc1C(=O)N1CCC(c2cc(Cc3ccccc3)[nH]n2)CC1 | -9
Cc1nn(C)c(C)c1CCC(=O)NCc1nc(C2CCCCC2)no1 | 4
COc1cccc(CN2CCC3(CC2)OC(C(N)=O)Cn2ccnc23)c1 (stereo unspecified) | 101
Cc1ccccc1-c1ccc([C@H]2[C@H]3CN(S(=O)(=O)Cc4ccccc4)CCCCN3[C@H]2CO)cc1 | -61
CCOC(=O)c1cccc(NC(=O)CN2C(=O)CCc3cc(Br)ccc32)c1 | 87
N#C[C@H]1N[C@@H](CO)[C@H]1c1ccc(C#Cc2ccccc2F)cc1 | 58
O=C(Nc1cc(Cl)ccc1O)c1ccccc1CN1CCOCC1 | 155

An excerpt from above in order of length of the SMILES, highest first:
SMILES | Tg IFNy HTS
Cc1ccc(S(=O)(=O)Nc2ccc3c(c2)CC(=O)N([C@@H](C)CO)C[C@H](C)[C@H](CN(C)S(=O)(=O)c2ccccc2)O3)cc1 | -33
COc1cccc(C(=O)Nc2ccc3c(c2)C(=O)N(C)[C@H]2CC[C@@H](CC(=O)NCc4ccc(F)cc4)O[C@H]2CO3)c1 | -35
CO[C@H](CN(C)C(=O)c1cc(Cl)cc(Cl)c1)[C@H](C)CN(C(=O)Nc1ccc(F)cc1)[C@@H](C)CO | 57
Cc1noc(C)c1NC(=O)N1C[C@H](O)COC[C@H]2O[C@@H](CC(=O)NCC3CC3)CC[C@@H]21 | 7
Cc1ccccc1-c1ccc([C@H]2[C@H]3CN(S(=O)(=O)Cc4ccccc4)CCCCN3[C@H]2CO)cc1 | -61
O=S(=O)(c1ccccc1F)N1CC[C@@H]2[C@H](CO)Nc3ccc(C4=CCCCC4)cc3[C@@H]21 | -66
CC(=O)N1C[C@@H]2C3(CCN(C(=O)NC(C)C)CC3)CC[C@]2(C(=O)N2CCCC2)C1 | -4
Cc1cccc(CNC2=NCCNC23CCN(S(=O)(=O)c2ccc(C)c(C)c2)CC3)c1 | 13
Cn1cnc2c(-c3ccccc3)nc(C3CCN(S(=O)(=O)C4CC4)CC3)cc21 | -6
Cc1ccc(CNC(=O)Cn2c(=O)cc(-c3nc(C)no3)c3ccccc32)cc1 | -28
Cc1ccc(C)c(-c2coc(-c3ccc(NC(=O)CC(C)C)cc3)n2)c1 | -63
Cc1cc(C)n(Cc2ccc(C(=O)NC(C)c3nncn3C(C)C)cc2)n1 (stereo unspecified) | -2
Cc1ccccc1-c1noc(-c2cccc(NC(=O)CCN3CCCO3)c2)n1 | 167
Cc1ccc(C)c(Cn2c(CNC(=O)c3cccs3)nc3ccccc32)c1 | -13
COc1ccc(C2(CNC(=O)C3CCN3C3CCCCC3)CCOCC2)cc1 (stereo unspecified) | 9
Cc1nn(C)c(C)c1CCC(=O)NCc1nc(C2CCCCC2)no1 | 4
COc1ccc2[nH]cc(CCNC(=O)C3CCCNC3=O)c2c1 (stereo unspecified) | -22

(listing goes on)
SMILES | Tg IFNy HTS
CO[C@@H]1CN(C)C(=O)c2cc(NC(=O)Nc3cc(F)ccc3F)ccc2OC[C@H](C)NC[C@@H]1C | ?
CC(C)N1CC(c2ncn[nH]2)c2cc(C(=O)N3CCCCC3)ccc21 (stereo unspecified) | -2
COCCN1C(=O)CCc2cc(NC(=O)COc3ccc(F)cc3)ccc21 | -1
COc1ccc2c3c(n(C)c2c1)[C@@H](CO)N(C(=O)NC(C)C)CC31CCN(CC2CCOCC2)CC1 | -16
CC(C)NC(=O)N1CCC(c2nnc3ccc(C(=O)Cc4ccccn4)cn23)C1 (stereo unspecified) | 3
COCC(=O)N1CCC2(CC1)CC(OCc1cccnc1)CO2 (stereo unspecified) | 5
CC(Cn1cncn1)n1ccnc1-c1cc2ccccc2[nH]c1=O (stereo unspecified) | 4
COCC1(NC(=O)C(=O)Nc2ccc(C)cc2)CCCC1 | 101
O=C(Nc1cccc(C(F)(F)F)c1)N1CCOC12CCCCC2 | -8
CC(C)(C)c1ccc(NC(=O)CSc2ccc(Cl)cc2)cc1 | 56
N#CCN1Cc2ccccc2C2(CCN(C(=O)c3ccno3)CC2)C1 | -9
CS(=O)(=O)N1CCCN(c2nccc(N3CCCC(O)C3)n2)CC1 (stereo unspecified) | -4
COCCN1C(=O)CCc2cc(NC(=O)c3ccc(Br)o3)ccc21 | 18
O=C(COc1ccccc1)Nc1ccc2c(c1)C(=O)N(CC1CCCO1)C2=O (stereo unspecified) | -5
COc1ccc(C(=O)Nc2ccccc2C(=O)NCCN2CCOCC2)o1 | -8
CCc1nc(-c2cccc(-n3ccnc3-c3nccn3C)c2)n[nH]1 | -3
C[C@@H]1CN([C@H](C)CO)C(=O)c2ccccc2-c2ccccc2CO[C@@H]1CN(C)C(=O)[C@H]1CCCN1C | 74
Cc1cccc(N(C)S(=O)(=O)c2csc(C(=O)NCc3cccnc3)c2)c1 | -43
CN1C(=O)c2cc(NC(=O)NCc3ccccc3)ccc2OC[C@@H]2O[C@@H](CC(=O)NCC3CCCCC3)CC[C@@H]21 | -39
Cc1ccc(CN2CC(C(=O)N3CCCC3)C3(CCOCC3)C2)s1 (stereo unspecified) | 254
CCS(=O)(=O)N1CCC2(CC1)CN(C(=O)Nc1c(C)noc1C)[C@H](CO)c1c2c2ccc(OC)cc2n1C | 20
CC(=O)NCc1csc(C2CCN(C(=O)COc3ccc(Cl)cc3)CC2)n1 | -13
FC(F)(F)CCc1ccnc(-c2ccc[nH]2)n1 | -1
CCc1ncc2c(n1)CN(C(=O)C1(c3ccc(F)cc3)CCOCC1)C2 | 3
COCCN1C(=O)N(CC(C)C)C(=O)C12CCN(Cc1cn(C)c3ccccc13)CC2 | 8
O=C(C[C@@H]1CC[C@@H]2[C@H](COC[C@H](O)CN2CCC(F)(F)F)O1)NCc1ccc2c(c1)OCO2 | -25
C[C@H](CO)N1C[C@H](C)[C@@H](CN(C)C(=O)Nc2ccccc2F)Oc2cc(Br)ccc2S1(=O)=O | 46
Clc1ccc(-n2ncc3c(NC4CCCCCCCCCCC4)ncnc32)cc1 | 11
O=C(CC(F)(F)F)N1C[C@H]2[C@@H](c3ccccc31)[C@@H](CO)N2CC1CCOCC1 | 5
CCS(=O)(=O)N1CCC(n2cccn2)c2cc(NCC3CC3)ccc21 (stereo unspecified) | -8

Next records.
Molecule	Tg IFNy HTS
O=C(Nc1ccc(F)cc1F)c1c(O)c2ccccc2[nH]c1=O	-1
CS(=O)(=O)N1CC(=O)N2[C@H](CO)[C@@H](c3ccc(C#Cc4ccc(F)cc4)cc3)[C@H]2C1	-9
COc1ccc2oc(C)c(C(=O)Nc3ccc(OCC(=O)N4CCCC4)cc3)c2c1	17
O=C(NCCc1csc(-c2ccc(F)cc2)n1)c1ccc2c(c1)OCO2	11
COc1ccccc1NC(=O)N1CC(=O)N2[C@@H](CO)[C@H](c3ccc(C#CC(C)C)cc3)[C@@H]2C1	-8
CCOC(=O)c1[nH]ncc1CN1CCCN(c2cccc(OC)c2)CC1	51
CCCCN(C)CCCNC(=O)C1=C(C)C(=O)OC12CCN(Cc1ccccc1)CC2	-61
N#C[C@@H]1[C@@H](c2ccc(/C=C/c3ccccc3)cc2)[C@@H](CO)N1C(=O)Cc1ccccn1	28
Cc1ccc(C2(O)CCN(C(=O)C(Cc3cnc[nH]3)n3cccc3)CC2)nc1 (stereo unspecified)	10
Cc1ccc(-n2cc(CN3CCCC(Cn4ccnc4C)C3)cn2)cc1C (stereo unspecified)	-39
NC(Cc1c[nH]c2ccccc12)C(=O)NCc1ccco1 (stereo unspecified)	-2
CC(C)Nc1ncc(C(=O)N2CCN(C(=O)c3ccccc3)CC2)cn1	-5
O=C(Nc1ccccc1C(F)(F)F)N1CCC2(CC1)Nc1ccccc1-n1cccc12	66
CNC[C@@H]1OCc2ccccc2-c2ccccc2C(=O)N([C@@H](C)CO)C[C@H]1C	62
O=C(C[C@H]1CC[C@@H]2[C@H](COC[C@@H](O)CN2Cc2cccc(Cl)c2)O1)NCc1cccc(F)c1	-26
Cc1ccc(CNC(=O)Cn2ncc3c(N4CCCC4)ncnc32)cc1	44
CC(C)Cn1cnc2c(N)nc3ccccc3c21	9&24
Cc1cccc(NC(=O)c2c3c(N4CCN(C)CC4)ncnc3n3ccccc23)c1	302
Cc1nnc(SCCNC(=O)c2[nH]c3ccc(F)cc3c2C)s1	-67
Cc1ccccc1-c1ccc([C@H]2[C@H]3CN(C(=O)c4ccncc4)CC(=O)N3[C@H]2CO)cc1	-24
CC(CN(C)C(=O)c1cnc(-c2ccccc2)nc1)N1CCOCC1 (stereo unspecified)	6
CN1CC2(CCN(CCSc3ccccc3)C2)OC1=O (stereo unspecified)	8
COc1ccc([C@@H]2C[C@H](OC(=O)CCn3c(=O)oc4ccccc43)C(=O)N2C)cc1	-6
Cc1cc2c(NS(=O)(=O)c3cn(C)cn3)cccc2nn1	40
Cc1cc(C(=O)N2CC(C(=O)NCC3CC3)C3(CCOCC3)C2)c(C)o1 (stereo unspecified)	1
CN1CCC(N2CCN(C(=O)c3ccc(-c4cccs4)nc3)CC2)CC1	18
CCC(=O)Nc1ccc(NC(=O)C(C)N2CCCC2=O)cc1Cl (stereo unspecified)	99
C=CCOC1C2CCC1N(S(=O)(=O)c1cccs1)C2 (stereo unspecified)	39
CCc1nccn1CCC(=O)N1CCCC2(CCN(C)CC2)CC1	2
CN1C(=O)C2(CCOCC2)c2cc(NC(=O)c3ccsc3)ccc21	-11
O=C(CC1CC1)N1CC2(C1)[C@H](c1ccccc1)[C@@H](CO)N2S(=O)(=O)Cc1ccccc1	-37
COc1cc(C)c(CNC(=O)c2cccc(N3CCCC3=O)c2)cc1C(C)C	176
COCC(=O)N1CCc2ccc(=O)n(CC3CCOCC3)c2CC1	48
C[C@@H]1CN([C@@H](C)CO)C(=O)c2cccc(N(C)C)c2O[C@H]1CN(C)C(=O)Nc1ccc(F)cc1	2
CCc1ccccc1NC(=O)Cn1ncc2c(N3CCN(c4ccccc4)CC3)ncnc21	254
C/C=C/CC(=O)Nc1cc(C)ccc1NC(=O)CCCC	-14
CCN1CCC2(CC1)OC(=O)C(C)=C2C(=O)NCCCN1CCN(Cc2ccccc2)CC1	49
NCC[C@@H]1CC[C@@H](NC(=O)Cc2ccncc2)[C@@H](CO)O1	21
COc1ccccc1-c1nc(Cn2ccn3nc(-c4ccc5c(c4)OCO5)cc3c2=O)c(C)o1	-42
COCCC(=O)N1CCc2nc(N3CCOCC3)nc(NC(C)C)c2C1	31
CCC(=O)N1CC2(CCN(Cc3ccc(Cl)cc3)CC2)c2c(n(C)c3cc(OC)ccc23)[C@@H]1CO	-58
COc1ccc(-c2c(C)nn(C)c2N)cc1OC	65
CCc1ccc(NC(=O)N2CCC(c3nc(C(=O)N(C)C)c(C)o3)CC2)cc1	41
Cc1csc2ncc(C(=O)N3CCc4ncc(Cl)cc4C3)c(=O)n12	26
COc1ccc(C(=O)N(c2cc(C)cc(C)c2)C2(C(=O)NCc3ccccc3)CCN(C(C)=O)CC2)cc1	-1
O=C(NC[C@H]1[C@H](c2ccccc2)[C@@H](CO)N1C(=O)C1CCC1)NC1CCCC1	-17
O=C1C2SCCN2C(=S)N1c1cccc(C(F)(F)F)c1 (stereo unspecified)	-8
CCc1nc(OCC(=O)Nc2ccc(C)cc2Br)c2ccccc2n1	-15
CCc1c(C)nn(CCNC(=O)c2ccc3cccc(F)c3n2)c1C	48
CC[C@@H]1C/C=C\C[C@H](c2ccccc2)NC(=O)CCC(=O)N1	18
CN(CCc1noc(-c2cc3ccccc3[nH]2)n1)C(=O)c1ccncc1	380
O=C(NCc1cccnc1-n1cnc2ccccc21)C(=O)Nc1ccccc1	-8
COC(=O)Cc1c(-c2ccccc2)c2cc(C)ccc2[nH]c1=O	32

Source: PubChem BioAssay

Not all compounds are listed, so the mix of outcomes need not match the whole.
